eIF4H FP inh: inhibitors of RNA binding by human eIF4H | Q15056 | eIF4H fluorescence polarization binding assay | inhibition, % at 35 µM | 0.94% of 290,000 active | AID 2012;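 active means 50% or more with normal probe brightness, or confirmed in later tests; inconclusive means above 50% with abnormal brightness, or retests that disagree; inactive means below 50% or failed in later tests; about a fifth of its hits are not listed in these tables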;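 further: calls also rest on retests at 20 µM and on dose response follow-up; 0% = protein and probe with vehicle and 100% = probe without protein; strong numbers were not always called active; many hits fall short of the cut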
PABP polyA inh: PABP-poly(A) binding inhibition; P11940; PABP-poly(A) RNA binding, fluorescence polarization; inhibition, % at 35 µM; 1% of 290,000 active; AID 2014;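 active means 50% or more with normal probe brightness, or confirmed in later tests; inconclusive means above 50% with abnormal brightness, or retests that disagree; inactive means below 50% or failed in later tests; about a fifth of its hits are not listed in these tables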;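 further: calls also rest on retests at 20 µM and on dose response follow-up; controls were probe without protein and protein plus probe with vehicle; some compounds called inactive have numbers as strong as hits; many hits fall short of the cut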
Target sequence (P11940 whole entry, looked up): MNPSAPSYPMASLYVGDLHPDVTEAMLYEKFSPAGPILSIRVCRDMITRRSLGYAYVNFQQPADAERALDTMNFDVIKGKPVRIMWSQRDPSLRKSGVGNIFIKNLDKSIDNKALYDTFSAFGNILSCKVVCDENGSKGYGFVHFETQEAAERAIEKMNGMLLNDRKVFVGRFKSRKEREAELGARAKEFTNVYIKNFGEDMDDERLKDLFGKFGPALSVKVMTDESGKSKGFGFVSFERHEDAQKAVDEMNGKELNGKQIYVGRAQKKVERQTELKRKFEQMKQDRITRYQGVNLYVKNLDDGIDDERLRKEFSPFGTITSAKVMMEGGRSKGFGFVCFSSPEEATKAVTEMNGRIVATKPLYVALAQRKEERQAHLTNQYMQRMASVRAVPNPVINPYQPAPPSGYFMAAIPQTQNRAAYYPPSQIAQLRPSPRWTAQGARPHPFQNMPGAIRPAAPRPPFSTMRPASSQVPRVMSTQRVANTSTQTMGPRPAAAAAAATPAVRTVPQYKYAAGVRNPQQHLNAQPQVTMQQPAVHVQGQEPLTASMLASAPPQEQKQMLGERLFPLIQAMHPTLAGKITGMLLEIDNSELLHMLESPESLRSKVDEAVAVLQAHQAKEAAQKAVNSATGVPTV
MT1-MMP act inh: MT1-MMP (human) activation inhibition; HT1080 RFP-PRO-GFP cells, GFP/RFP ratio fluorescence, overnight; percent of plate control window, DMSO zero; GFP/RFP ratio change, % at 20 µM; 0.061% of 360,000 active;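 active means GFP/RFP ratio change of at least 30% with cell ATP level not reduced by more than half and red fluorescence within 50% of control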; further: strong numbers were not always called active
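Assay system: HT1080 cells carrying an RFP-PRO-GFP reporter | Dosing: Single dose of 20 µM compound, 1% DMSO final | Incubation: Cells overnight before dosing, compound overnight, 37 °C, 5% CO2 | Evaluation: GFP/RFP fluorescence ratio | Control set: DMSO and RFP-L50D-GFP cell wells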
Rce1 inh: inhibitors of yeast Ras-converting enzyme. yeast membranes, quenched prenylated peptide cleavage fluorescence. calls only. 0.27% of 290,000 active;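 active means fall in fluorescence gain of 50% or more versus controls, with final raw signal at or below 3038400; inconclusive means same 50% fall but final raw signal above 3038400; inactive means fall in fluorescence gain under 50%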;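 further: plate controls were neutral control wells for no effect and wells lacking membranes for full effect; tested at 10 µM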
Env fusion inh: HIV envelope-mediated fusion inhibition. HeLa-JRFL Env/CEM21 cell fusion, luciferase. inhibition, % at 12.3 µM. 1.1% of 360,000 active;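 active means mean replicate inhibition score of at least 50 and every replicate individually at or above 50; inconclusive means only one of the two criteria met; inactive means mean below 50 and not all replicates reaching 50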;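 further: 0% = plate neutral controls and 100% = maraviroc near 300 nM; one replicate is shown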
UUG fidelity: yeast start codon fidelity modulation; S. cerevisiae UUG-firefly luciferase reporter, luminescence/redox ratio; activity score, % at 18.7 µM; 0.13% of 350,000 active;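 active means replicate mean at a twofold rise or more, about +100% in these data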;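 further: firefly luciferase made from a UUG start codon reports start codon fidelity; reporter light over untreated wells divided by growth signal over untreated wells; some hits fall short of that in this replicate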
CSC inhib: cancer stem cell inhibition; cancer stem cell-like cells viability, luminescence; inhibition, % at 7.5 µM; 1.1% of 300,000 active; AID 2717;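 active means mean at 75% or more and at least half the replicates too; inconclusive means mean and replicates disagree; tested in HMLE shEcad cells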;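 further: 0% = median of negative and 100% = median of positive control wells; the first replicate is given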
eIF4H FP inh retest: also measured in eIF4H FP inh; calls as there; inhibition, %; compound at 20 µM; confirmation average;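 mean of two retest wells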
PABP polyA inh retest: also measured in PABP polyA inh; calls as there; inhibition, %; compound at 20 µM; confirmation repeats;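 mean of two retest wells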
MT1-MMP act inh RFP: second read-out of MT1-MMP act inh, no call of its own (marks repeat the call); RFP signal change, %; measured here: RFP expression control read;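 0 = vehicle wells; hits needed this value within 50% of zero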
* marks the source's active call; other numbers are inactive results; i = inactive; ? = inconclusive; . = no result given.

SMILES	eIF4H FP inh	PABP polyA inh	MT1-MMP act inh	MT1-MMP act inh RFP	Rce1 inh	Env fusion inh	UUG fidelity	CSC inhib	others
CCOC(=O)c1c(N)sn(-c2ccccc2C)c1=S	-7	-2	-2	-1	i	.	-8	1
O=C(CN1C(=O)CSC1=O)Nc1ccc(N2CCOCC2)cc1	-6	2	-6	-1	i	.	-14	-3
Cc1cc(N2CCOCC2)nc2ccc(NC(=O)CCC(=O)N3CCC(C)CC3)cc12	-9	1	4	1	i	-18	4	-7
CN(c1ccc(C(=O)NCC2CCCO2)cc1)S(C)(=O)=O (stereo unspecified)	-9	13	-1	0	i	.	-23	-10
Cc1cc(C(=O)Nc2ncn[nH]2)ccc1[N+](=O)[O-]	-5	-5	5	3	i	-20	-26	-10
Cn1c(C(=O)OC(C(=O)NC2CCCCC2)c2ccccn2)cc2sccc21 (stereo unspecified)	7	2	4	-3	i	-8	-24	11
Nc1nc2c(nc(N3CCCCC3)n2[C@@H]2O[C@H](CO)[C@@H](O)[C@H]2O)c(=O)[nH]1	-1	12	2	5	i	-5	.	3
CCOc1nc(NC(=O)NS(=O)(=O)Oc2ccccc2Cl)nc(-c2ccccc2)n1	-4	26	1	2	i	-15	-11	7
COC(=O)/C=C1/SC(=NC(=O)c2ccc(Cl)cc2)NC1=O	.	.	6	0	i	14	8	-13
COc1ccc(CN2C[C@@H](CO)O[C@@H](n3cnc4c(NCc5cc(OC)c(OC)c(OC)c5)ncnc43)C2)cc1	.	.	-2	-1	.	-27	2	.
COC(=O)C(C(=O)N1CCN(C)CC1)C1CCCCCC1 (stereo unspecified)	4	-4	-2	1	.	.	-13	-10
COc1ccc(CN(C#N)c2nc(C)cc(C)n2)cc1	-8	3	0	2	i	15	-3	.
O=[N+]([O-])c1ccc(CSC2=NCCS2)cc1	-9	3	-3	-1	i	-38	-4	5
COc1ccc2c(COC(=O)CNS(=O)(=O)c3ccc(C)c(C)c3)cc(=O)oc2c1	.	.	1	4	.	-50	-17	.
O=C(C[C@H]1C/C=C\C[C@@H](Cc2ccc(F)cc2)C(=O)OC[C@H]2CCCN2C1=O)N[C@@H](CO)Cc1ccccc1	.	.	5	0	.	9	27	-23
OCC1(Cc2cccc(Cl)c2)CCCN(Cc2ccc(F)c(F)c2)C1 (stereo unspecified)	9	2	-3	-2	i	-21	-13	47
Cc1cc(/C([O-])=C(/C(=S)Nc2ccccc2)[n+]2ccccc2)c(C)n1-c1ccccc1	61*	63*	-1	2	.	-59	-9	-20
COc1ccc(N2CCN(C(=O)c3ccc(C)cc3Cl)CC2)cc1	-6	0	1	-1	i	.	-17	-11
Nc1ccc(Oc2ccc3nc(-c4ccccc4)c(-c4ccccc4)nc3c2)cc1	-2	0	.	.	i	.	4	25
Cc1nn(CC2CC2)c(=O)n1-c1ccc(Cl)cc1	-3	-4	-3	3	i	-3	-42	-8

The last 3 entries of the section above are carried over, then new ones follow:
SMILES	eIF4H FP inh	PABP polyA inh	MT1-MMP act inh	MT1-MMP act inh RFP	Rce1 inh	Env fusion inh	UUG fidelity	CSC inhib	others
COc1ccc(N2CCN(C(=O)c3ccc(C)cc3Cl)CC2)cc1	-6	0	1	-1	i	.	-17	-11
Nc1ccc(Oc2ccc3nc(-c4ccccc4)c(-c4ccccc4)nc3c2)cc1	-2	0	.	.	i	.	4	25
Cc1nn(CC2CC2)c(=O)n1-c1ccc(Cl)cc1	-3	-4	-3	3	i	-3	-42	-8
CCn1ccnc1CN1CCc2c([nH]c3ccccc23)C1C1CCCCC1 (stereo unspecified)	20	7	0	3	i	1	.	6
Cc1ccc(C)c(N2CCN(C(=O)C3CCN(c4nnc(N5CCCC5=O)s4)CC3)CC2)c1	-4	6	-3	-12	i	.	.	-14
CCc1nc2c(OCc3ccccc3)cccn2c1N(C)C(=O)c1ccc(OC)cc1	.	.	0	2	.	3	-17	.
Cn1c2c(c(=O)[nH]c1=O)C(c1cccc(O)c1)C1=C(N2)c2ccccc2C1=O (stereo unspecified)	2	-6	-8	-15	.	25	.	.
CCNC(=O)/C(=C/c1ccc2c(c1)OCO2)NC(=O)c1ccc(Br)cc1	5	-2	-1	-1	i	-30	-5	16
Oc1ccc(/C=N/NC(=S)NCCN2CCOCC2)c(O)c1	-4	-14	6	4	i	4	.	-4
CCCc1cc(C(=O)NCCc2ccccc2)no1	-4	-11	4	6	i	1	-9	13
C/C(=N\O)c1ccc(Cl)cc1Cl	-15	-2	-2	0	.	-13	.	-3
O=C(Nc1ccc2c(c1)OCO2)N1CCC(CO)(CC2CCCCO2)CC1 (stereo unspecified)	-6	-1	-7	0	i	-6	.	8
CC(C)Oc1cccc(-c2nnc(SCC(=O)Nc3ccc4c(c3)OCCO4)n2N)c1	1	-9	-3	1	i	11	-17	-6
COc1ccc(S(=O)(=O)n2cccc2)c(OC)c1	0	3	3	1	i	-22	-7	42
CCc1ccc(CNC(=O)c2ccc(OC3CCN(C(=O)COC)CC3)cc2)nc1	5	3	-7	-5	i	3	-33	-14
COc1ccc(NC(=O)Cn2cccc2)cc1Cl	5	-1	4	6	i	.	-4	1
O=[N+]([O-])c1ccccc1Oc1ccccc1Cl	-2	-6	-2	5	i	-16	.	-7
O=c1[nH]c(Nc2ccc3c(c2)OCCO3)nnc1Cc1ccccc1	-2	-3	-3	-2	i	-13	.	-1
Fc1ccc(-[n+]2nc(Nc3ccccc3)sc2-c2c(Cl)cccc2Cl)cc1	-5	5	0	-15	i	-2	-10	42
N#CC(Nc1ccccc1)c1ccccc1OCc1ccccc1 (stereo unspecified)	-12	-4	1	2	i	-103	.	5
Cc1nc(NC(=O)c2ccccc2[N+](=O)[O-])sc1C(=O)N(C)C	12	-1	-5	0	i	-13	.	-4
CC(C)C(c1nnnn1Cc1ccc2c(c1)OCO2)N1CCN(C)CC1 (stereo unspecified)	0	-12	2	1	i	-63	-24	-3
CCN(CC(=O)Nc1ccc2c(c1)OCCO2)C(=O)CN1C(=O)NC(C)(c2ccc(C)cc2)C1=O (stereo unspecified)	.	.	6	4	.	6	-10	.
Cc1cccc2c(N)c3c(nc12)CCCC3 (tested in a mixture with another compound)	-6	13	4	4	.	-1	-19	.
CCN(C(=O)CSc1cc(C)c2ccccc2n1)c1c(N)n(Cc2ccccc2)c(=O)[nH]c1=O	3	0	0	-2	i	-36	.	-13
CCN(CC)CC#CCC(O)(c1ccccc1)C1CCCCC1 (stereo unspecified)	-14	4	-4	2	i	5	-8	25
O=C(COc1ccc2c(c1)OCO2)Nc1nncs1	-1	4	1	3	i	3	-18	2
Cc1nc(C(=O)NCC(=O)c2ccc(Cl)cc2)c(C(F)(F)F)o1	-2	-4	0	-3	i	5	-5	6
Cn1c(=O)c2c(nc(Cl)n2CC(=O)NC2(C#N)CCCCC2)n(C)c1=O	.	.	1	1	i	-13	-3	1
COc1ccc(N2CC(C(=O)NCCS(=O)(=O)N3CCN(c4ccccc4)CC3)CC2=O)cc1 (stereo unspecified)	6	-2	3	5	i	7	-20	0
Cc1ccc(S(=O)(=O)Nc2ccccc2F)cc1C(=O)NCCCN1CCCC1=O	-6	-2	0	3	i	-25	-10	-9
C/C(=N/NC(=O)c1nnn(-c2nonc2N)c1-c1ccccc1)c1ccncc1	-5	6	-3	-2	i	2	-14	-4
COc1ccc(S(=O)(=O)Nc2cccc(C(C)=O)c2)cc1Br	5	9	1	-2	i	4	.	2
O=C1[C@H]2[C@@H](c3ccc(Cl)cc3)N3C(=O)N(c4cccc(F)c4)C(=O)[C@@]3(Cc3ccccc3)[C@H]2C(=O)N1C1CCCCC1	.	.	-3	-6	i	2	-6	17
CC1CN(C(=O)COC(=O)c2ccc(N)c([N+](=O)[O-])c2)CC(C)O1 (stereo unspecified)	-32	-10	1	0	i	2	.	-15
Cc1nnc(NC(=O)CSc2ccccc2N)s1	-5	-5	1	7	i	-9	-10	-10
O=C(Nc1ccc(Cl)c(S(=O)(=O)N2CCOCC2)c1)c1cc2ccccc2oc1=O	.	.	10	-5	.	-24	-12	-2
O=C(O)c1ccc(Cn2cnc3cccnc32)cc1	55	31	-1	3	i	-14	11	-2	eIF4H FP inh retest=15;PABP polyA inh retest=35
CN1C(=O)C(C)(C)c2cc(S(=O)(=O)N3CCCC3C(=O)NCc3ccccc3Cl)ccc21 (stereo unspecified)	-13	6	-1	-1	i	-16	10	.
O=C(O)CSCC(=O)N1CCN(c2ccnc3cc(Cl)ccc23)CC1	-17	-13	4	3	i	.	-8	-10
COc1cccc(C(C(=O)NC(C)(C)C)N(C(=O)CCC(=O)Nc2cc(C)on2)C(C)C)c1OC (stereo unspecified)	0	5	2	4	i	-20	.	-17
CCC(C(=O)O/N=C(\N)c1cccc(C)c1)c1ccccc1 (stereo unspecified)	-7	8	-6	0	i	-23	-15	-10
CCN(CC)C(=S)SCC(=O)Nc1ccc(S(N)(=O)=O)cc1	10	-5	-4	2	i	9	-10	.
C#CCNC(=O)C1=C[C@@H](C2CC2)C[C@@H](OCc2ccc(CO)cc2)O1	-2	8	-3	-6	i	7	0	-9
O=C(C1=C[C@H](c2ccc3c(c2)OCO3)C[C@H](OCc2ccc(CO)cc2)O1)N1CCOCC1	3	12	2	3	i	2	-13	2
CCCOC(=O)C1=C(C)NC2=C(C(=O)CC(C)(C)C2)C1c1cccnc1 (stereo unspecified)	1	9	-9	-4	.	-45	.	-4
CCOP(=O)(OCC)C(C#N)=C1SCN(c2ccccc2)CS1	.	.	3	3	i	-72	-8	-1
O=C(OC1CCCCC1)c1cc2ccccc2oc1=O	-1	-1	2	0	i	-16	-7	0
CC(NC(=O)c1ccco1)c1ccc(-n2ccnc2)cc1 (stereo unspecified)	.	.	4	-2	i	-7	-15	-7
Cc1ccc(C(=O)C(C)OC(=O)Cc2n[nH]c(=O)c3ccccc23)cc1 (stereo unspecified)	.	.	-3	-2	i	-5	-3	16
Cc1onc(-c2ccccc2Cl)c1C(=O)NCCCN1CCOCC1	4	5	2	1	i	.	-2	13
Cc1cccc(N2CCN(C(=O)c3cccc(N4CCCC4=O)c3)CC2)c1C	.	.	0	-3	i	-5	-7	11
Cc1oc(-c2ccc(F)cc2)nc1CN(Cc1ccccn1)CC1CCCO1 (stereo unspecified)	18	13	-5	2	i	-8	-4	1
Cc1cc(N/C=C\C(=O)c2ccc(Cl)c(Cl)c2)no1	0	-2	7	1	i	.	-6	6
FC(F)Sc1ccc(NC(=S)NCc2ccccc2)cc1	-14	3	0	-8	i	14	-24	4
O=S(=O)(c1ccccc1)c1cnn(-c2ccccc2)c1-c1ccc(F)cc1	-2	1	-4	-6	i	?	-5	10
Cc1cc(C(C)(C)C)oc1C(=O)N(CC(=O)NC1CCCC1)c1c(C)cccc1C	0	12	-40	-31	i	.	.	23
COc1ccc(OCC(=O)NS(=O)(=O)c2ccccc2)cc1	7	4	2	3	i	-7	.	-13
Cc1ccc(NC(=S)NNC(=S)NNc2ccccc2)cc1C	.	.	11	2	.	-72	-29	.
Cc1ccccc1S(=O)(=O)Oc1ccccc1C(=O)Oc1ccccc1	-7	-4	-1	3	i	.	-17	0

Screens: PubChem, several laboratories

The list is partial. The share of hits here may be higher or lower than overall.
